AID504770: growth inhibitors of E. coli YBA685 in a screen for V. cholerae RctB (chromosome II replication) inhibitors | 130,000 compounds, 0.27% hits | E. coli YBA685 rctB-dependent plasmid, OD600 growth, 3 h; hits give low values | z-score (concentration not given with the values);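 active = z-score under -2 on both plates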;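 also: wells of about 30 µL received 100 nL stock; score is relative to mean and SD of the test wells; the first replicate is given; strong numbers were not always called active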
Ba CapD inh: CapD enzyme inhibition. z-score (concentration not given with the values). 140,000 compounds, 0.23% hits. purified CapD enzyme, fluorescence intensity read-out; hits give low values; some hits fall short of the stated cut;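 active = z-score under -4 in either of two replicates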;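 also: stock transfer was 100 nL into about 40 µL; score is relative to mean and spread of the plate; one replicate is shown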
* hit, by the source's call; nt = no result given.

SMILES	AID504770	Ba CapD inh
O=C(Cc1cccs1)NCCCN1CCCC1=O	-0.6	0.44
Cc1cc(C)cc(NC(=O)c2ccc(COc3ccccc3Br)o2)c1	1.1	-0.24
O=C(N1CCOCC1)N1CCN(Cc2ccccc2)CC1	2.7	nt
N/C(=N/O)c1nc(N2CCCCC2)nc(N2CCCCC2)n1	-0.2	0.38
CCOC(=O)c1c(CSc2ccccc2)n(C)c2cc(Br)c(O)cc12	nt	0.1
CCn1c2c(c(=O)[nH]c1=O)C(c1ccsc1)C1=C(N2)c2ccccc2C1=O (centres undefined)	0.1	0.74
COC(=O)CSc1nc2sc3c(c2c(=O)n1Cc1ccccc1)CC(C)(C)OC3	nt	-0.03
CCOC(=O)c1cc(-c2ccccc2)n(CCCC(=O)NCc2ccccc2)c1C	-0.4	0.11
O=C(CSc1nc2sc3c(c2c(=O)[nH]1)CCC3)Nc1ccccc1C(F)(F)F	0.5	0.6
Oc1ccccc1C(=S)N1CCN(C(=S)c2ccccc2O)CC1	-0.45	nt
CCn1c(-c2ccc(=O)n(Cc3cccc(C(F)(F)F)c3)c2)n[nH]c1=S	nt	0.15
CCC(CO)Nc1nnc(-c2ccccc2)c2ccccc12 (centres undefined)	-1.6	-0.34
Cc1nn(-c2ccc(Cl)cc2)c2sc(C(=O)O)cc12	-0.85	nt
CN(C)S(=O)(=O)c1ccc(C(=O)Nc2ccccc2SCCC#N)cc1	-0.05	nt
CCC(=O)Nc1nonc1-c1ccc(OC)cc1	-0.85	0.78
CSc1ccc(/C=C2\C(=O)C3CCN2CC3)cc1	-2.1	-1.1
CCOC(=O)C(Cc1c[nH]c2ccccc12)NC(=O)c1ccc(Br)cc1 (centres undefined)	nt	-0.15
Cc1ccc2c(c1)c(=O)c1ccccc1n2CC(=O)Nc1ccc(OCc2ccccc2)cc1	nt	1.7
COc1ccc(/C=C/C(=O)N2c3ccccc3C(C)(c3ccc(C)cc3)CC2(C)C)cc1OC (centres undefined)	nt	-0.3
CCn1c(CSc2nnc(C3CC3)n2C)nc2cc(S(=O)(=O)N3CCCCC3)ccc21	-0.65	nt
CCN1CCN(c2ncnc3sc(C(=O)Nc4ccccc4F)c(C)c23)CC1	nt	-0.58
COc1ccccc1N1CCN(CC(O)COc2c(F)cc(Br)cc2F)CC1 (centres undefined)	-1.1	0.075
COC(=O)C1=C(C(=O)OC)SC(=C2C(=S)C(C)(C)N(C(=O)C(C)C)c3ccccc32)S1	nt	-0.12
O=C(COC(=O)c1cc(-c2ccco2)nc2ccccc12)Nc1ccc(N2CCOCC2)cc1	-0.5	nt
CCOC(=O)N1CCN(Cn2c(=S)sc3ccccc32)CC1	-0.55	nt

Remaining list, next part:
SMILES	AID504770	Ba CapD inh
CC(NC(=O)CSc1n[nH]c(=O)[nH]c1=O)C1CC2CCC1C2 (centres undefined)	0.15	nt
CCCOc1ccc(C=Nc2ccc(N3CCN(CC)CC3)cc2)c(O)c1	-0.05	nt
O=c1ccc2cc(O[C@H]3O[C@H](CO)[C@@H](O)[C@H](O)[C@H]3O)c(O)cc2o1	nt	-0.54
C=CCNC(=O)c1cnn2c(C(F)F)cc(-c3ccccc3)nc12	-0.65	0.12
COc1cccc(C(=O)Nc2ccc3sc4ccccc4c(=O)c3c2)c1	nt	2.3
O=C(CSc1nc2c(oc3ccccc32)c(=O)n1CC1CCCO1)Nc1ccccc1 (centres undefined)	-0.3	nt
COc1ccc(NC(=S)NNc2ccc(C(=O)O)cc2)cc1	0	nt
O=C1CCC(C(=O)NCCCn2ccc3ccccc32)=NN1	-0.85	nt
CCOC(=O)c1ccoc1COC(=O)c1ccc(C)c(C)c1	-0.05	nt
CCOC(=O)c1cccc(NC(=O)N2CCOCC2)c1	-2	nt
O=C(CSc1c2c(nc3ccccc13)CCCC2)NCCC1=CCCCC1	0	0.15
N#CC1C(c2ccc3ccccc3n2)=CN(CC(=O)c2ccc([N+](=O)[O-])cc2)c2ccccc21 (centres undefined)	nt	0.44
COc1ccc(C)cc1NC(=O)CCC(=O)c1ccc2c(c1)OCCCO2	3	nt
Cc1ccc2c(c1)c(Sc1ccccc1)c(CC(=O)Nc1ccccc1)n2C	nt	-0.085
CCOc1ccc(CN2CCNC(=O)C2CC(=O)OC)cc1 (centres undefined)	-0.5	0.11
O=C(CSCc1ccco1)c1ccccc1F	0.25	-0.77
CC(c1ccccc1)n1cc(C(=O)NCC2COc3ccccc3O2)nn1 (centres undefined)	2.5	nt
Clc1cccc(CSC2=Nc3cc(Cl)ccc3SCC2)c1	nt	-0.42
O=C(CSc1nc2ccccc2o1)OCC(=O)c1ccccc1	-0.45	0.59
COc1ccccc1N1CCN(C2CCN(Cc3cc(OC)c(OC)c(OC)c3)CC2)CC1	-0.35	0.47
CC(=O)c1ccc([N+](=O)[O-])c(CS(=O)(=O)c2ccc(Cl)cc2)c1	nt	0.79
COc1ccc(N2C(=O)/C(=C/c3ccc(OCC#N)c(OC)c3)C(=O)NC2=S)cc1	nt	-0.11
O=C(/C=C\Sc1ncc(C(F)(F)F)cc1Cl)c1ccc(Cl)cc1	nt	-0.33
CC1CC(=O)Nc2ccccc2N1S(=O)(=O)c1cn(C)cn1 (centres undefined)	-0.65	0.41
O=C(Nc1nnc(CCS(=O)(=O)c2ccc(Br)cc2)s1)c1ccco1	nt	-0.41

The list goes on:
SMILES	AID504770	Ba CapD inh
N#CCCN1CCn2c3ccc(C4CCCCC4)cc3c3cccc1c32	0.3	0.16
Cn1nc(C(=O)Nc2ccc(Cl)cc2)ccc1=O	0.3	nt
CSc1ccccc1C(=O)NCCOc1ccccc1C	-1	-0.05
CSc1nnc(CCNC(=O)NCc2ccccc2)n1C	-0.4	nt
COc1ccc(-n2c(=O)c3c(n4c(SCC(N)=O)nnc24)-c2ccccc2CC32CCCCC2)cc1	nt	-0.23
Cc1ccc(-c2nc(=O)c3ccccc3o2)cc1	0.45	-0.48
CC(C)=C1SC(N2CCN(c3ccccc3)CC2)=NC1=O	0.9	nt
O=C(Nc1cccc(C(=O)NCc2ccc3c(c2)OCO3)c1)C1=CSCCO1	0.05	0.2
CCCn1c(=O)c2sccc2n2c(CCCC(=O)NCc3cccnc3)nnc12	-0.35	1.3
CCN1/C(=C/c2sc3ccccc3[n+]2CCC(=O)O)Sc2ccccc21	nt	-0.36
CC1CN(C)C(C)C(/C=C(/C#N)C(N)=S)C1=O (centres undefined)	-1.4	-1.8
COc1ccc(-c2noc(CNC(=O)COc3ccccc3)n2)cc1	1.8	-1.4
COc1ccc(C(=O)N/N=C/c2ccccc2SC(C)(C)C)cc1	nt	0.38
CCOC(CN(c1ccc(F)cc1)S(=O)(=O)c1ccc(F)cc1F)OCC	nt	-0.055
CCC1=C(C(=O)OC)C(c2ccccc2OC)n2ncnc2N1 (centres undefined)	-2.4	0.075
Cc1nc2ccc(NC(=O)/C=C/c3ccc(Br)o3)cc2s1	-0.35	nt
CONC1=CC(=O)c2ccccc21	-0.5	nt
CSCc1c(C)noc1-c1cc(C)on1	-0.3	-0.95
CN(C)c1cccc(NC(=O)c2ccco2)c1	0.2	-0.23
CCOC(=O)c1c(CN2CCN(CC#N)CC2)n(Cc2ccccc2)c2cc(Br)c(O)cc12	nt	-0.13
COc1cccc(-c2noc(N)c2C#N)c1	-0.3	0.15
O=C(Cn1nc(-c2ccccc2)ccc1=O)N1CCC2(CC1)OCCO2	1	4.5
CC(C)(C)c1ccc2[nH]c3c(cc(Nc4ccccc4)c4c(=O)c5ccccc5c(=O)c43)oc2c1	nt	0.12
Cc1ccc(C(=O)NC(CC(=O)O)C(F)(F)F)cc1 (centres undefined)	0.3	0.51
COc1cc(OC)c(CN2CCN(C(=O)OCc3cccc(Br)c3)CC2)c(OC)c1	nt	-0.38

(listing goes on)
SMILES	AID504770	Ba CapD inh
COc1ccc(-n2cnc3cc(C(=O)NC4CCCCC4C)ccc32)cc1 (centres undefined)	-0.3	-1.4
Clc1nc(NCCN2CCOCC2)nc(N2CCCCC2)n1	nt	0.21
CSc1nnc(Cn2c(=O)sc3ccccc32)n1CCc1ccccc1	0.25	nt
CCOC(=O)c1sc(NC(=O)C(CC)Sc2nc3ccccc3o2)nc1C (centres undefined)	nt	-0.07
O=C(CSCc1ccco1)CN1CCc2ccccc21	-0.8	nt
CCN(CC)C(=S)SC1CS(=O)(=O)CC1O (centres undefined)	-0.55	0.37
Cc1oc(/C=N/NS(=O)(=O)c2ccccc2)cc1Br	-1.4	-1.1
CC(C)N1CCS(=O)(=O)CC1	3	-0.06
O=C(O)C1C2CCC(CC2)C1C(=O)O (centres undefined)	1.4	-0.55
COC(=O)COc1cccc2c(=O)n(CC(N)=O)ccc12	0	nt
O=C(O)CCCC1=NS(=O)(=O)c2ccccc2N1	2.1	nt
O=C1C=CC(=O)N1c1ccccc1C(F)(F)F	-2.5*	-1.3
Cc1ccc(C(=O)n2nc(-c3cccnc3)nc2NCc2ccco2)cc1	-0.3	-0.36
Cc1cccc(NC2=NC(=S)N(c3ccccc3C)C23CCCCC3)c1	nt	-0.26
CC(C)N1CCC(=O)N(c2ccc(C(C)(C)C)cc2)C1=O	0.3	0.63
O=C(COC(=O)CCc1c[nH]c(=O)[nH]1)Nc1ncccn1	-0.55	nt
COc1ccc(S(=O)(=O)NC2CCCCCCC2)cc1OC	nt	0.66
O=C(CC1Sc2ccccc2NC1=O)N/N=C/c1ccc([N+](=O)[O-])s1 (centres undefined)	nt	0.35
CC12CCC(C(=O)N(c3ccccc3Br)C1=O)C2(C)C (centres undefined)	nt	-0.92
O=C(NCCCN1CCCCC1)c1cc(Sc2ccc(F)cc2)nc2ccccc12	-1.5	-0.24
CN1CCc2c(sc(NC(=O)c3cc(Cl)sc3Cl)c2C(N)=O)C1	1.9	-1.1
COC(=O)C(C)C1Sc2ccccc2NC1=O (centres undefined)	-0.7	-0.71
COC(=O)C1C(=O)NC2(C)CC1c1cccc(OC)c1O2 (centres undefined)	nt	-0.45
O=C(O)/C=C\C(=O)NCC1(c2ccccc2)CCOCC1	0.5	0.24
Cc1cc(=O)oc2c1ccc1oc(N=Nc3ccccc3)c(O)c12	-1.2	13

Retrieved one by one from the entries so far (6):
SMILES	AID504770	Ba CapD inh
Cc1ccc(C(=O)n2nc(-c3cccnc3)nc2NCc2ccco2)cc1	-0.3	-0.36
CC12CCC(C(=O)N(c3ccccc3Br)C1=O)C2(C)C (centres undefined)	nt	-0.92
CSc1nnc(Cn2c(=O)sc3ccccc32)n1CCc1ccccc1	0.25	nt
CCN(CC)C(=S)SC1CS(=O)(=O)CC1O (centres undefined)	-0.55	0.37
O=C(O)C1C2CCC(CC2)C1C(=O)O (centres undefined)	1.4	-0.55
Clc1nc(NCCN2CCOCC2)nc(N2CCCCC2)n1	nt	0.21

4 of the compounds above, as labelled records:
COC(=O)COc1cccc2c(=O)n(CC(N)=O)ccc12
- AID504770 = 0
- Ba CapD inh = nt

O=C(O)CCCC1=NS(=O)(=O)c2ccccc2N1
- AID504770 = 2.1
- Ba CapD inh = nt

O=C1C=CC(=O)N1c1ccccc1C(F)(F)F
- AID504770 = -2.5*
- Ba CapD inh = -1.3

Cc1ccc(C(=O)n2nc(-c3cccnc3)nc2NCc2ccco2)cc1
- AID504770 = -0.3
- Ba CapD inh = -0.36

Next section.
SMILES	AID504770	Ba CapD inh
CC(C)(CN)C(O)C(=O)O (centres undefined)	0.2	nt
CNC(=O)CS(=O)(=O)CC(=O)Nc1cc(OC(C)C)c(Cl)cc1Cl	nt	-0.45
Cc1[nH]nc2c1C(c1ccc(C(C)C)cc1)N(C)C2=O (centres undefined)	1.1	nt
O=C(Cn1cccc1)Nc1ccccc1Cl	-0.6	8.2
CC1(C)C/C(=N\O)c2c(nc(C(F)(F)F)c3[nH]c4ccccc4c23)C1	0.75	-0.14
N#C/C(=C\Nc1cc(C(F)(F)F)cc(C(F)(F)F)c1)S(=O)(=O)c1cccs1	-0.6	-0.34
CCOC(=O)N1CCN(C(=S)NC2CCCC2)CC1	0.85	-0.38
COc1cc(/C=N/OC(=O)c2ccc(Cl)cc2Cl)cc(OC)c1OC	nt	0.47
CC(NC(=O)CSc1nnc(-c2ccco2)n1-c1ccccc1)C1CC2CCC1C2 (centres undefined)	-0.45	nt
N#CC(C#N)=C1CCC(=C(C#N)C#N)CC1	-1.1	6.5
CCN1/C(=C\C=c2/s/c(=C3\SC(=S)N(C)C3=O)n(C)c2=O)Sc2ccccc21	nt	-0.25
O=C(CC1C(=O)NCCN1C(=O)c1ccccc1)Nc1ccc(F)cc1 (centres undefined)	-0.85	-0.54
Cc1cc(C)cc(OCC(O)CN2CCN(C(=O)c3ccco3)CC2)c1 (centres undefined)	-0.3	nt
COc1ccc(N2CCN(C3OC(=O)c4ccccc43)CC2)cc1 (centres undefined)	0.55	0.29
CCSc1nnc(-c2cccc(S(=O)(=O)N3CCOCC3)c2)n1C1CCCC1	-0.75	nt
CN(C)c1ccc(NC(=O)c2ccccn2)cc1	0	nt
CC(=O)NC(=O)c1cc2ccccc2oc1=Nc1ccc(C(F)(F)F)cc1	-2	-0.26
Cc1ccc(S(=O)(=O)N(CC(=O)NCc2ccncc2)c2ccc(Cl)c(C(F)(F)F)c2)cc1	nt	-0.16
Cc1c(Cl)cccc1NC(=O)CSC1=C(C#N)C(c2ccccc2[N+](=O)[O-])CC(=O)N1 (centres undefined)	nt	-0.68
Cc1ccc(C(=O)N2CCN(Sc3ncnc4sccc34)CC2)cc1	-0.45	0.12
Nc1ccccc1C(=O)NCCN1CCNC1=O	-0.9	107
CCCCn1c(Cc2ccccc2)nc2ccccc21	0.2	-0.12
O=C(CSc1ncc(-c2ccc(F)cc2)n1Cc1ccco1)OC1CCCCC1	0	nt
CC1CN(C(=S)SCC(=O)c2ccccc2)CC(C)O1 (centres undefined)	-0.05	-0.21
CC1(C)C(C(=O)ON2C(=O)CCC2=O)C1(C)C	2.2	-0.14
COC(=O)c1ccc(Cl)cc1NS(=O)(=O)c1cccc(C(F)(F)F)c1	nt	-0.12

Screens from PubChem BioAssay.

This is a subset. The share of hits here may be higher or lower than overall.
